Compound activity (PubChem BioAssay)
GLA inh pH 4.5 = qHTS Assay for Inhibitors of Human alpha-Galactosidase at pH 4.5. activity change, negative = inhibition, % at 105 µM. AID 1467, 2008. 230,000 tested, under 10 active. Alpha-galactosidase A (Homo sapiens), P06280. purified enzyme, 4-MU-alpha-Gal fluorescence, pH 4.5; inconclusive = small, poorly fitted or top-dose-only inhibition, or a rising curve; inactive = flat fitted curve, though single readings scatter; no compound was filed as active;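 also: 0% = full activity with enzyme and -100% = basal without enzyme; dose as in the result columns while the protocol names 77 µM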
Target sequence (P06280 whole entry, looked up): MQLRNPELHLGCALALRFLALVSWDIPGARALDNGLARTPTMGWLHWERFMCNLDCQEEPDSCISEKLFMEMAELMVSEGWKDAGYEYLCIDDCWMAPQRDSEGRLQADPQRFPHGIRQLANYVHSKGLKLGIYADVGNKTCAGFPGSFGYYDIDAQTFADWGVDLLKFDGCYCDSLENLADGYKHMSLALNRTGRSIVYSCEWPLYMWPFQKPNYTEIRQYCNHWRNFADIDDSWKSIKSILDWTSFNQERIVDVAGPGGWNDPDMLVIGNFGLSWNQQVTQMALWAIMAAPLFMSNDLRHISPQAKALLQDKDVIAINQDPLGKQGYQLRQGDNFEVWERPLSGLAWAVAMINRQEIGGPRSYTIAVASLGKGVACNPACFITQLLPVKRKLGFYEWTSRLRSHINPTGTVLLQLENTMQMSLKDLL
Rango-impB inh = qHTS Assay for Inhibitors of Rango (Ran-regulated importin-beta cargo) - Importin beta complex formation | Potency, µM (doses to about 92.2 µM), inactives show at the top dose inhibition of complex formation | 340,000 compounds, 0.031% hits | AID 540263, 2011 | Rango CFP/YFP FRET sensor + importin beta, 45 min | Importin subunit beta-1 (Homo sapiens), Q14974; active = rising FRET ratio curve, often small or poorly fitted; inconclusive = mostly compound fluorescence or quenching in the first reads; inactive = flat curves in all reads;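 also: potency is read from the fitted curve at half-maximal effect; 0% = DMSO wells and 100% = buffer wells lacking importin beta; nearly all actives have a fitted effect of over 15% in size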
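FRET biosensor Rango (snurportin 1 IBB between N-terminal EYFP and C-terminal Cerulean), 50 nM in PBS/1 mM DTT/0.02% Tween-20/0.1% BSA, preincubated 5 min RT with compound; 0.125 microM importin beta added, 45 min RT, CFP/YFP FRET ratio read.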
miR-21 FLuc = qHTS Assay for Modulators of miRNAs and/orActivators of miR-21. HeLa miR-21 FLuc reporter, luciferase, 48 h. Potency, µM (series often up to 38.3 µM), without a hit: at the highest dose reporter change, positive = more light. 340,000 tested, under 10 active. AID 2288, 2010; active = well fitted rising curve with a large enough effect; inconclusive = small, poorly fitted or top-dose-only effect; inactive = no such curve, though single readings can be large or run the other way;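 also: % of control where 0% means no effect; miR-21 action dims this reporter so a rising signal means less miR-21 action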
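HeLa miR-21-FLuc reporter line, endogenous miR-21; 2000 cells/well in DMEM/10% FBS; compound titration up to ~40uM final, 48 h, 37 degree Celsius; luciferase detection reagent, 15 min lysis, CCD luminescence.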
Rango dissoc inh = qHTS Assay for Inhibitors of RanGTP induced Rango (Ran-regulated importin-beta cargo) - Importin beta complex dissociation. Biochemical FRET Rango-importin beta, RanGTP-induced dissociation. 340,000 compounds, 0.071% hits. Potency, µM (doses to about 46.1 µM), for inactives: top-dose activity change, negative = inhibition. Snurportin-1 (Homo sapiens) + GTP-binding nuclear protein Ran (Homo sapiens) + Importin …; active means falling FRET ratio curve, often poorly fitted, with flat reads before Ran was added; inconclusive means other falling curves, or compound fluorescence or quenching; inactive means flat or rising ratio curve;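 also: potency is read from the fitted curve at half-maximal effect; % of control where 0% means no effect; nearly all actives have a fitted effect of over 45% in size; -100% = wells without RanGTP and RCC1; the record marks most hits as doubtful in a second field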
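Rango FRET biosensor (snurportin-1 IBB flanked by N-terminal EYFP and C-terminal CFP10) at 0.1 uM, with 0.25 uM importin beta in PBS, 1mM DTT, 0.02% Tween-20, 0.1% BSA. 0.6 uM Ran, 2mM GTP and 0.2 uM RCC1 were then added for 45 min at room temperature. Inhibition read as loss of FRET rise.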
* marks the source's active call; other numbers are inactive results; u = inconclusive; x = not tested or not shown; & = joins results of further samples; [ ] = another dose, or the depositor's remark.

SMILES	GLA inh pH 4.5	Rango-impB inh	miR-21 FLuc	Rango dissoc inh
O=S(=O)(c1ccc(F)cc1)N1CCC2(CC1)OCCN2S(=O)(=O)c1cccs1	x	-3.1%	x	14%
CCOc1ccccc1NC(=O)CCCn1cc([N+](=O)[O-])cn1	10	3.3%	-4%	0%
Cc1ccc2onc(CC(=O)O)c2c1	-3	-0.2%	-1%	-15%
COc1ccc(/C(N)=N/OC(=O)CN(C)S(=O)(=O)c2ccccc2)cc1	-10	7.0%	-17%	32%
O=C(OCc1ccc(F)cc1)c1cccnc1Cl	x	4.6%	-7%	-7%
C(=N\C(/N=C/c1ccco1)c1ccco1)/c1ccco1	5	u	-18%	-14%
CCc1nnc(NC(=O)C2CC(=O)N(CCc3ccccc3)C2)s1 (stereo not drawn)	8	-4.7%	3%	-8%
O=C(O)c1cccnc1C(=O)O	-2&-3&-1	0.9%	x	u
Cc1cc(NC(=O)CN2C(=O)CC(c3ccco3)Sc3ccccc32)no1 (stereo not drawn)	5	u	-5%	-12%
O=c1[nH]c2cc3c(cc2cc1CN(CCO)S(=O)(=O)c1ccccc1Cl)OCCO3	14	3.6%	-11%	6%
CC1CCN(S(=O)(=O)c2ccc(S(=O)(=O)NCC(=O)C(C)(C)C)cc2)CC1	0	5.9%	-7%	9%
CCCn1c(=O)[nH]c(=O)c2c1nc(-c1cccs1)n2CCOC	10	3.9%	-1%	3%
COc1cc(C(=O)Nc2ccccc2NC(=O)c2cc(OC)c(OC)c(OC)c2)cc(OC)c1OC	x	0.6%	1%	16%
Cc1ccc(C(=O)Nc2ccc(NC(=O)c3cccs3)cc2)c(C)c1	x	4.3%	2%	5%
CCC(CC)=C(C#N)C(=O)NC1CCCCC1	1	-0.9%	0%	21%
COc1cc(C=C(c2nc3ccccc3s2)c2nc3ccccc3s2)cc(OC)c1O	-2	u	-9%	u
Cc1cc(C#Cc2c(-c3ccccc3)n(C)c3ccccc23)ccc1F	x	u	0%	-2%
CCc1ccc(N2C(=O)c3sc4nnc(-c5ccccc5)c(=O)n4c3C2=O)cc1	-5	-4.8%	1%	0%
Cc1ccc(S(=O)(=O)N2CCOCC2)cc1C(=O)NC(=S)N1CC(C)OC(C)C1 (stereo not drawn)	-6	2.8%	-9%	-1%
CCCCC1CCC(C(=O)Nc2ccccc2)CC1 (stereo not drawn)	5	-1.1%	-3%	2%
Cc1nc2c3ccccc3n(Cc3ccccc3F)c2s1	-10	-2.6%	-21%	3%
COc1cccc(CNC(=O)C2CCCN2S(=O)(=O)c2ccc3c(c2)C(C)(C)C(=O)N3C)c1 (stereo not drawn)	x	-2.7%	1%	13%
O=C(O)C1CC=CCC1C(=O)NNc1ccccc1 (stereo not drawn)	-3	-1.1%	3%	2%
CC(=O)O[C@H]1[C@H](C)OC=C[C@@H]1OC(C)=O	x	0.2%	0%	6%
CN1c2ccccc2-c2nc3ccccc3n2C1c1ccco1 (stereo not drawn)	u	-1.1%	11%	-2%
Cc1ccc(NC(=O)CN2C(=O)c3ccccc3C2=O)nc1	3	0.9%	1%	6%
Cn1c(SCC(=O)NCC2COc3ccccc3O2)nnc1C(F)(F)F (stereo not drawn)	x	1.1%	x	1%
CN(C)CCNc1ncnc2sc(-c3ccccc3)cc12	x	-1.9%	17%	-6%
O=C(O)/C=C1\CCCc2ccccc2C1O (stereo not drawn)	x	-0.9%	x	35%
Cc1ccc(-c2[nH]c(-c3ccccc3)nc2SCC(=O)NCC2CCCO2)cc1 (stereo not drawn)	-4	-0.6%	19%&10%	0%
O=C(/C=C/c1cccc(Cl)c1)NCc1cccs1	-3	-3.1%	-20%	-7%
O=C(NNC(=O)c1cccs1)c1ccc([N+](=O)[O-])cc1	-10	3.8%	-20%	-1%
Cc1ccc(Nc2cc(-n3nc(C)cc3C)ncn2)cc1	-2	0.9%	-6%	-20%
COc1cc2cnc(-c3ccsc3)c(-c3ccc(F)cc3)c2cc1OC	x	2.8%	x	-6%
CC1(C)Cc2c(c(N3CCCC3)nc3sc4c(N5CCNCC5)ncnc4c23)CO1	-5	-0.1%	-7%	11%
COc1ccc(-c2cccc(NC(=O)COc3ccc(Cl)cc3)c2)nn1	x	-0.2%	0%	9%
CCc1ccccc1NC(=O)Nc1cccn(Cc2ccccc2F)c1=O	-6	0.0%	-2%	2%
CCCCC(=O)NC(=S)NNC(=O)CC#N	5	0.7%	3%	-6%
Cc1cc(=O)oc2cc(OCC(=O)N3CC(C)OC(C)C3)ccc12 (stereo not drawn)	0	-0.9%	-5%	-22%
c1ccc(COc2cccc(CNn3cnnc3)c2)cc1	-2	8.9%	2%	35%
CC1CCCN(C(=O)c2ccc(-c3ccccc3Cl)o2)C1 (stereo not drawn)	x	2.5%	x	0%
CCS(=O)(=O)N1CCC(C(=O)Oc2ccccc2Cl)CC1	x	-0.1%	-2%	11%
O=[N+]([O-])c1ccc2c(c1)oc1ccccc12	6	-1.3%	-7%	1%
CCCCC(C(=O)O)C(C)CC(=O)NNC(=O)c1ccco1 (stereo not drawn)	4	-0.1%	0%	-2%
CCn1c(=N)n(CC(=O)OC)c2ccccc21	3	-5.8%	0%	-9%
Cc1ccc(NC(=O)c2ccccc2NC(=O)CCC(=O)O)cc1	4	-2.0%	-39%	-4%
O=S(=O)(c1ccc2c(c1)nc1n2CCC1)N1CCOCC1	0	-1.4%	-1%	3%
Cc1ccc(NC(=O)c2ncn(CC(=O)N[C@H](C)c3cccc4ccccc34)n2)cc1C	x	-0.1%	x	-8%
Cc1ccccc1NC(=S)N1CCC(C(=O)c2ccc(F)cc2)CC1	-1	0.5%	-3%	-7%
CC(C)Oc1cccc(C(=O)NC2=NCCS2)c1	-3	1.9%	-63%	-7%
Cc1cc(NC(=O)CSc2ncc(C(F)(F)F)cc2Cl)no1	x	u	x	3%
COc1ccc(N(CC(=O)NC2CCCCC2)C(=O)CCCC(=O)Nc2ccccn2)c(OC)c1	6	-0.6%	-5%	-13%
N=C(N=C(N)N)N1CCc2ccccc21	-8	4.1%	-1%	-17%
CCc1cc(CNC(=O)CC2C(=O)NCCN2Cc2cccc(OC)c2)on1 (stereo not drawn)	2	0.0%	-2%	1%
CC(O)(CS(=O)(=O)Cc1ccccc1)c1ccccc1Cl (stereo not drawn)	x	1.5%	-2%	-2%
Cc1cccc(CSc2nnnn2-c2ccccc2)c1	-9	-1.0%	-27%	0%
COc1ccccc1-n1cnnc1SCC(=O)c1c[nH]c2ccccc12	-15	1.6%	-6%	11%
N#C/C(=C\c1ccc(N2CCOCC2)o1)C(=O)NCCc1ccccc1	-3	u	-36%	u
C#CCOc1ccc2c(C)cc(=O)oc2c1	-15	3.2%	-25%	-5%
O=C(NCc1ccco1)C1(S(=O)(=O)c2ccc(Cl)cc2)CC1	-3	-0.3%	-1%	-4%
Going on with the list.
SMILES	GLA inh pH 4.5	Rango-impB inh	miR-21 FLuc	Rango dissoc inh
COc1cc(NS(=O)(=O)c2ccc(NC(=S)NC(=O)c3sc4ccccc4c3Cl)cc2)ncn1	6	u	-13%	-17%
Cc1ccc(S(=O)(=O)n2nc(OC(=O)C(C)(C)C)cc2N)cc1	4	5.0%	1%	0%
COc1cc(C(=O)Nc2oc(-c3ccccc3)c(-c3ccccc3)c2C#N)cc(OC)c1OC	-6	-1.7%	-2%	5%
COc1ccccc1N1CN(CCc2ccccc2)CNC1=S	0	0.8%	1%	-1%
CCOCCCNC(=O)C(NC(=O)c1ccc(NC(C)=O)cc1)c1ccc(OC)cc1 (stereo not drawn)	-3	8.3%	-6%	-15%
NS(=O)(=O)c1ccc(NC(=O)COC(=O)CCc2ccccc2)cc1	2	0.1%	-3%	0%
COc1cc(OC)cc(C(=O)NCC2CCCN(Cc3ccc(SC)cc3)C2)c1 (stereo not drawn)	x	-1.8%	2%	16%
CCOC(=O)CCSc1nc(C)c2ccccc2n1	-3	-2.9%	-12%	0%
Cc1c[nH]c2cccc(OCC(O)CNC(C)(C)C)c12 (stereo not drawn)	1	2.1%	-2%	11%
CCC(C)(C)n1nnnc1C(c1cc2ccc(OC)cc2[nH]c1=O)N1CCc2ccccc2C1 (stereo not drawn)	-5	u	10%	u
CCn1c(=O)c2cc(S(=O)(=O)NC3CCCCC3)ccc2n(CC)c1=O	u	0.5%	-1%	1%
COc1cc(C(=O)N/C(=C\c2cn(S(=O)(=O)N(C)C)c3ccccc23)C(=O)NCCCO)cc(OC)c1OC	3[21.1 µM]	-4.0%	-1%	-6%
Cc1cc(-c2nnc(CCC(=O)N(CC3CCC3)CC3CCCO3)o2)no1 (stereo not drawn)	1	-0.6%	-36%	-17%
Cn1c(CC(=O)Nc2ccccc2C(F)(F)F)c(Sc2ccccc2)c2ccccc21	2	2.7%	-1%	2%
O=C(CSc1nnnn1-c1ccc(Cl)cc1)N1CCNC1=O	x	-2.9%	x	11%
N#Cc1ccccc1OCC(=O)N1N=C(c2cccs2)CC1c1ccco1 (stereo not drawn)	x	2.9%	x	0%
c1ccc(CNc2nc(NCc3ccccc3)c3ccccc3n2)cc1	-1	6.1%	u	-6%
COc1ccc(C(=O)N/C(=C\c2cn(S(=O)(=O)N(C)C)c3ccccc23)C(=O)N2CCOCC2)cc1	x	u	4%	-13%
C=CCN(CC=C)C(=S)Nc1cc(Cl)ccc1OC	-2	-5.1%	-1%	-14%
CCOCCCNC(=S)NCCCNc1nc2ccc(C)cc2cc1C#N	-2	x	-3%	x
Cc1sc2nc(-c3cccs3)nc(N3CCCN(C)CC3)c2c1C	-8	x	-29%	x
Nc1ccc2ccc(O)cc2c1	x	3.1%	x	2%
CCOC(=O)c1cc2oc(C(c3nnnn3C3CCCCC3)N3CCOCC3)cc2[nH]1 (stereo not drawn)	-8	0.3%	17%	7%
O=C1c2cccc3cccc(c23)C(=O)N1CCN1CCN(CC(O)COCc2ccc(Cl)cc2)CC1 (stereo not drawn)	-4	0.5%	22%	3%
CCOc1ccccc1NC(=O)c1cnc2n(c1=O)CCS2	-9	4.1%	-9%	1%
[N-]=[N+]=CC(=O)c1ccnc(C(=O)C=[N+]=[N-])c1	-1	0.3%	3%	0%
CCOC(=O)c1c(NC(=O)Cn2nnc(-c3ccc(Cl)cc3)n2)sc(CC)c1C	3	u	1%	-11%
CCOC(=O)CSc1nnc2cc(C)c3ccccc3n12	8	-0.1%	2%	1%
N/C(=N\OC(=O)COc1ccccc1)c1ccc(Cl)cc1	3	u	-48%	-21%
CN(CCCC1CCCC1)C(=O)c1cc(COc2ccc(F)cc2F)on1	x	-4.4%	-18%	-1%
CCn1cc(C(=O)NCCCN2CCC(C)CC2)c2cc(OC)c(OC)cc2c1=O	u	-0.1%	-5%	0%
O=C(CN(CC1CCCO1)C(=O)Cn1nnc(-c2ccc(F)cc2)n1)NC1CCCCC1 (stereo not drawn)	0	u	-2%	11%

Some of the entries above in another layout.
canonical_smiles: COc1ccc(C(=O)N/C(=C\c2cn(S(=O)(=O)N(C)C)c3ccccc23)C(=O)N2CCOCC2)cc1
  GLA inh pH 4.5: x | Rango-impB inh: u | miR-21 FLuc: 4% | Rango dissoc inh: -13%

canonical_smiles: C=CCN(CC=C)C(=S)Nc1cc(Cl)ccc1OC
  GLA inh pH 4.5: -2 | Rango-impB inh: -5.1% | miR-21 FLuc: -1% | Rango dissoc inh: -14%

Three records drawn at random from the list so far:
SMILES	GLA inh pH 4.5	Rango-impB inh	miR-21 FLuc	Rango dissoc inh
CC(O)(CS(=O)(=O)Cc1ccccc1)c1ccccc1Cl (stereo not drawn)	x	1.5%	-2%	-2%
O=C(O)C1CC=CCC1C(=O)NNc1ccccc1 (stereo not drawn)	-3	-1.1%	3%	2%
CC(=O)O[C@H]1[C@H](C)OC=C[C@@H]1OC(C)=O	x	0.2%	0%	6%

These rows are one share of the data; count on the stated rates, not on these rows.
